Source: PubChem
MT1-MMP act inh: blocks activation of human MT1-MMP. AID 651647. HT1080 RFP-PRO-GFP cells, GFP/RFP ratio fluorescence, overnight; percent of plate control window, DMSO zero. GFP/RFP ratio change, % at 20 µM. hit rate 0.061% among 360,000. P50281;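 active = GFP/RFP ratio change of at least 30% with cell ATP level not reduced by more than half and red fluorescence within 50% of control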; also: strong numbers were not always called active
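Assay system: HT1080 cells carrying an RFP-PRO-GFP reporter | Dosing: Single dose of 20 µM compound, 1% DMSO final | Incubation: Cells overnight before dosing, compound overnight, 37 °C, 5% CO2 | Evaluation: GFP/RFP fluorescence ratio | Control set: DMSO and RFP-L50D-GFP cell wells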
eIF4H inh: inhibitors of RNA binding by human eIF4H; eIF4H fluorescence polarization binding assay; hit rate 0.94% among 290,000; inhibition, % at 35 µM; Q15056;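 active = 50% or more with normal probe brightness, or confirmed in later tests; inconclusive = above 50% with abnormal brightness, or retests that disagree; inactive = below 50% or failed in later tests; about a fifth of its hits are not listed in these tables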;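 also: calls also rest on retests at 20 µM and on dose response follow-up; 0% = protein and probe with vehicle and 100% = probe without protein; strong numbers were not always called active; many hits fall short of the cut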
CSC inhib: blocks cancer stem cells; hit rate 1.1% among 300,000; inhibition, % at 7.5 µM; cancer stem cell-like cells viability, luminescence; AID 2717;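 active = mean at 75% or more and at least half the replicates too; inconclusive = mean and replicates disagree; tested in HMLE shEcad cells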;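 also: 0% = median of negative and 100% = median of positive control wells; the first replicate is given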
PABP polyA inh: PABP-poly(A) binding inhibition. P11940. PABP-poly(A) RNA binding, fluorescence polarization. inhibition, % at 35 µM. hit rate 1% among 290,000;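 active = 50% or more with normal probe brightness, or confirmed in later tests; inconclusive = above 50% with abnormal brightness, or retests that disagree; inactive = below 50% or failed in later tests; about a fifth of its hits are not listed in these tables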;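 also: calls also rest on retests at 20 µM and on dose response follow-up; controls were probe without protein and protein plus probe with vehicle; some compounds called inactive have numbers as strong as hits; many hits fall short of the cut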
Target sequence (P11940 whole entry, looked up): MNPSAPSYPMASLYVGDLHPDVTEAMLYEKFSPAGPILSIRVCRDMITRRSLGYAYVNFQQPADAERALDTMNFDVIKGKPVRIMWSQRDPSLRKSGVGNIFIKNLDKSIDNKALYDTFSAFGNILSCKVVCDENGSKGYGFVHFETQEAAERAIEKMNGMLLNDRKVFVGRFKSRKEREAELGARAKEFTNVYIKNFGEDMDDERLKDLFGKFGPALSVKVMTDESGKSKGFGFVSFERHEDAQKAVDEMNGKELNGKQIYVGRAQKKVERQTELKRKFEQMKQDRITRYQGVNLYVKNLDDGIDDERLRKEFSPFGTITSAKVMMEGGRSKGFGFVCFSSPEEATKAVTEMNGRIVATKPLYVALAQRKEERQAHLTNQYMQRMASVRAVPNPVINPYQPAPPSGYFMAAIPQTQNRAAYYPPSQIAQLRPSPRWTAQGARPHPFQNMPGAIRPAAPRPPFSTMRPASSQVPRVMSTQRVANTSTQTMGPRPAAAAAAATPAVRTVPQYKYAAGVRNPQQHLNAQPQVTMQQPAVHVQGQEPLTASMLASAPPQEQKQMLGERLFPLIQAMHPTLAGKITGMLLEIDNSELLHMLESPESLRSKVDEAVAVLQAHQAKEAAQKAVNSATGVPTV
Rce1 inh: yeast Ras-converting enzyme inhibition. yeast membranes, quenched prenylated peptide cleavage fluorescence. hit rate 0.27% among 290,000. calls only;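 active = fall in fluorescence gain of 50% or more versus controls, with final raw signal at or below 3038400; inconclusive = same 50% fall but final raw signal above 3038400; inactive = fall in fluorescence gain under 50%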;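 also: plate controls were neutral control wells for no effect and wells lacking membranes for full effect; tested at 10 µM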
Target sequence (Q03530 whole entry, looked up): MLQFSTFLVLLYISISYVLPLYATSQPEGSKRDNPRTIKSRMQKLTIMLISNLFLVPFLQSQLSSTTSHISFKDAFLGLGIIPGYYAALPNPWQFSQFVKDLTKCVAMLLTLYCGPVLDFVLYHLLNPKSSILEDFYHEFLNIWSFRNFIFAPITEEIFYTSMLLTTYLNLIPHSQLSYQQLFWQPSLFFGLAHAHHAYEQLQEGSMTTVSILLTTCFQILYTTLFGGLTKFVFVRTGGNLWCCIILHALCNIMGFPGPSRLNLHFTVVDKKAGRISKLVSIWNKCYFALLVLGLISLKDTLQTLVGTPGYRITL
Env fusion inh: blocks HIV Env-driven cell-cell fusion; HeLa-JRFL Env/CEM21 cell fusion, luciferase; inhibition, % at 12.3 µM; hit rate 1.1% among 360,000;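 active = mean replicate inhibition score of at least 50 and every replicate individually at or above 50; inconclusive = only one of the two criteria met; inactive = mean below 50 and not all replicates reaching 50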;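 also: 0% = plate neutral controls and 100% = maraviroc near 300 nM; one replicate is shown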
Yeast UUG start: yeast start codon fidelity modulation; activity score, % at 18.7 µM; hit rate 0.13% among 350,000; AID 602363; S. cerevisiae UUG-firefly luciferase reporter, luminescence/redox ratio;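 active = replicate mean at a twofold rise or more, about +100% in these data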;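 also: firefly luciferase made from a UUG start codon reports start codon fidelity; reporter light over untreated wells divided by growth signal over untreated wells; some hits fall short of that in this replicate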
eIF4H inh retest: recorded beside eIF4H inh, whose call it bears; inhibition, %; compound at 20 µM; confirmation average;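 mean of two retest wells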
PABP polyA inh retest: recorded beside PABP polyA inh, whose call it bears; inhibition, %; compound at 20 µM; confirmation repeats;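 mean of two retest wells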
MT1-MMP act inh RFP: also measured in MT1-MMP act inh; calls as there; RFP signal change, %; measured here: RFP expression control read;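 0 = vehicle wells; hits needed this value within 50% of zero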
* = called active by the depositor; i = inactive; ? = inconclusive; nt = not tested or not shown.

SMILES | MT1-MMP act inh | MT1-MMP act inh RFP | eIF4H inh | CSC inhib | PABP polyA inh | Rce1 inh | Env fusion inh | Yeast UUG start | others
Cn1cc([N+](=O)[O-])c(C(=O)Nc2ccc(-c3nc4ccccc4[nH]3)cc2)n1 | 2 | -4 | 3 | 30 | 4 | i | nt | nt
CCCCNC(=O)CCn1ccc2cc(S(=O)(=O)N3CCCC3)ccc21 | 0 | 1 | 8 | -11 | 3 | i | -5 | -3
CCN(C(=O)COC(=O)c1nn(-c2ccccc2)c(=O)c2ccccc12)C1CCS(=O)(=O)C1 (stereo unspecified) | -3 | 3 | 2 | -7 | 12 | i | 12 | 2
CC1(C)CC2CC(C)(CN2C(=O)c2ccc([N+](=O)[O-])cc2)C1 (stereo unspecified) | 1 | 1 | -6 | -8 | 0 | i | 23 | nt
COc1ccc(OC)c(NC(=O)COC(=O)CCC2CCCC2)c1 | -2 | 0 | nt | -10 | nt | nt | nt | -5
Cc1cc(C(=O)Nc2ccc(N3CCOCC3)c(Cl)c2)c(C)o1 | 2 | 1 | 0 | 7 | 7 | i | -5 | nt
CC(NC(=O)CN(C)S(=O)(=O)c1ccc2c(c1)c(=O)n(C)c(=O)n2C)c1ccccc1 (stereo unspecified) | -6 | 1 | -5 | 10 | -3 | i | 8 | 3
Cc1cc(NC(=O)C(C)C)ncc1NC(=O)c1ccco1 | 4 | -1 | 12 | -2 | 11 | nt | -15 | -20
CSc1nsc(SCC(=O)Nc2ccccc2)n1 | 1 | 4 | -7 | -5 | 4 | nt | 6 | -11
CNC(=O)CS(=O)CC(=O)Nc1cc(OC(C)C)c(Cl)cc1Cl (stereo unspecified) | 3 | 1 | -12 | -4 | 6 | i | 8 | nt
Cc1cccc(C)c1OCC(=O)Nc1cccc(NC(=O)c2ccco2)c1 | -1 | -4 | 7 | -3 | -4 | i | nt | -7
Cc1ccc(S(=O)(=O)Cn2nnnc2CN(Cc2ccco2)Cc2cccs2)cc1 | 3 | 1 | 17 | 6 | -12 | nt | nt | 6
COc1ccccc1C(=O)COC(=O)c1cc(=O)[nH]c2ccccc12 | 4 | -1 | nt | 3 | nt | i | -10 | nt
O=C(COC(=O)CCN1C(=O)/C(=C\C=C\c2ccccc2)SC1=S)Nc1cc(F)ccc1F | -9 | 4 | 41 | -6 | 5 | i | -11 | nt
Cc1ccc(S(=O)(=O)N2CCN(C(=O)COc3ccc(C)nc3[N+](=O)[O-])CC2)c(C)c1 | 0 | -3 | 10 | -5 | -11 | i | 15 | nt
CC1(C)CC(=O)c2cc(OCC(=O)N3CCOCC3)ccc2O1 | -5 | 1 | 1 | -14 | 6 | i | -12 | -17
Cc1cccc(-n2c3nc(=O)[nH]c(=O)c-3cc3cc([N+](=O)[O-])ccc32)c1 | 16 | -11 | 19 | 63 | 4 | i | -10 | 9
O=C1CCC(C(=O)OCC(=O)c2c[nH]c3ccccc23)=NN1 | 1 | -2 | -3 | -12 | -4 | i | -3 | -26
CN(C)S(=O)(=O)c1ccc(S(=O)(=O)NCc2ccc3c(c2)OCO3)cc1 | -1 | 0 | 1 | 4 | 5 | i | -1 | -25
Cc1ccc(-c2nc(NCc3ccc(F)cc3)n(S(C)(=O)=O)n2)cc1 | 1 | -3 | 3 | -5 | -15 | i | -14 | nt
COc1ccc(NC(=O)CN2CCN(C3c4ccccc4-c4ccccc43)CC2)c(OC)c1 | -4 | -5 | -7 | 27 | -10 | i | nt | 13
COc1ccc(-n2c(SCC(N)=O)nc3nc4c(cc3c2=O)COC(C)(C)C4)cc1 | -2 | -3 | -14 | 4 | -10 | i | nt | -23
COc1ccc(C(=O)Nc2nnc(S(=O)(=O)N(C)Cc3ccc(F)cc3)s2)cc1OC | 4 | -5 | 0 | 14 | 1 | i | -3 | -8
COc1ccc(Nc2nc(-c3cccnc3)cs2)c(OC)c1 | -4 | -2 | -2 | nt | 13 | i | -10 | 2
O=C(N/N=C/c1cc([N+](=O)[O-])cc(Br)c1O)C12CC3CCC(CC(C3)C1)C2 | -3 | -8 | 4 | 45 | 0 | i | 17 | -21
CN(C)C(=O)CSc1nnc(C23CC4CC(CC(C4)C2)C3)o1 | -1 | 1 | -11 | nt | 0 | i | -57 | -10
Cc1cc(NC(=O)CSc2cn(CCNC(=O)c3ccccc3)c3ccccc23)no1 | 0 | -1 | 0 | -7 | -5 | i | nt | -8
COc1ccc(Br)cc1-c1nc2c(c(=O)[nH]c(=O)n2Cc2ccccc2)n1C | -1 | 0 | 2 | 18 | 5 | i | -4 | -23
O=c1[nH]cnc(O)c1N=Nc1ccccc1 | -2 | -2 | -1 | -4 | -3 | i | 0 | nt
O=C(N1CCOCC1)C12CC3CC(C1)CC(n1cnc(Cl)n1)(C3)C2 | -4 | 2 | 6 | -5 | 51 | i | 6 | nt | eIF4H inh retest=-11;PABP polyA inh retest=-1
COc1ccccc1CNC(c1ccccc1)c1ccccc1 | -7 | 1 | -2 | 0 | 0 | i | 10 | -11
CN(Cc1ccc2c(c1)OCCO2)C(=O)CN1C(=O)NC2(CCCCC2)C1=O | 2 | 3 | -4 | nt | -11 | i | -1 | 3
CCN(C[C@H]1N[C@@](Cc2ccccc2)(C(=O)OC)[C@H]2C(=O)N(Cc3ccccc3)C(=O)[C@@H]12)C(=O)c1ccc(C)cc1 | -2 | -7 | nt | nt | nt | nt | -47 | -9
CCN1C(=O)c2ccccc2S(=O)(=O)c2ccc(C(=O)NCCCN(CC(C)C)CC(C)C)cc21 | 0 | 0 | -6 | 5 | -7 | i | 2 | -2
COc1ccc(C(C)=O)cc1CSCc1cc(C(C)=O)ccc1OC | 4 | -2 | -1 | -2 | 13 | i | 0 | -3
O=C(CCl)Nc1c[nH]c(=O)[nH]c1=O | 9 | 3 | -6 | nt | -6 | nt | 7 | nt
CCN(CCn1cccn1)C(=O)CC1C(=O)NCCN1CC1CCCCC1 (stereo unspecified) | -2 | 1 | 3 | -11 | 2 | i | -5 | nt
C=CCC1=C/C(=C\c2c(N)n3nc(CC(=O)N4CCCC4)sc3nc2=O)C=C(OC)C1=O | 0 | 52 | 48 | 9 | 43 | i | -6 | -6
Cc1cnc(NC(=O)c2ccco2)s1 | -1 | -9 | 2 | -1 | 5 | nt | -32 | -29
CN(C)S(=O)(=O)N1CCN(C(=O)c2ccc3c(c2)OCO3)CC1 | -3 | 2 | -2 | -7 | 8 | i | 1 | nt
Cc1ccc(OCC(=O)N2CCC(N3CCCCCC3)CC2)cc1 | 1 | 5 | 10 | 4 | 10 | i | -75 | -15
CC(C)c1ccc(-c2nc(N3CCCCC3)[nH]c(=O)c2C#N)cc1 | 0 | -1 | 0 | 6 | -6 | i | -40 | -24
CC(=O)c1ccc(S(=O)(=O)N2Cc3ccccc3CC2C(=O)O)cc1 (stereo unspecified) | -1 | -1 | 99* | -5 | 57* | i | 0 | -16
O=C(NCc1ccco1)c1ccccc1-c1ccccc1 | 2 | 7 | 5 | -6 | 0 | nt | -107 | -9
COc1cc(C(=O)OCc2cc(=O)c(O)co2)ccc1OC(F)F | 7 | 8 | 6 | 13 | 2 | i | -35 | nt
Cc1ccc(S(=O)(=O)N2CCCC(C(=O)NCc3ccc4c(c3)OCO4)C2)cc1 (stereo unspecified) | -5 | -9 | -3 | -3 | 0 | i | -18 | -12
CCOC(=O)Nc1oc2ccccc2c(=O)c1C | 4 | 3 | -3 | -4 | -7 | i | 8 | -4
COc1cc(/C=N/n2cnnc2)ccc1OC(=O)c1ccncc1 | 0 | 5 | -7 | -7 | 4 | i | -79 | -20
CC1CCN(c2nc3ccccc3nc2N2CCC(C)CC2)CC1 | nt | nt | -6 | -3 | -10 | i | nt | nt
COc1cc(C2Sc3ccccc3NC3=C2C(=O)OC3)cc(OC)c1OC (stereo unspecified) | 1 | 3 | -10 | 15 | -14 | i | -135 | 6
New compounds follow:
SMILES | MT1-MMP act inh | MT1-MMP act inh RFP | eIF4H inh | CSC inhib | PABP polyA inh | Rce1 inh | Env fusion inh | Yeast UUG start | others
CCOc1ccc(S(=O)(=O)n2nnc3ccccc32)cc1C(C)C | nt | nt | -4 | -4 | 0 | i | nt | nt
CC(=O)Nc1cccc(NC(=O)CSc2ncc(-c3ccccc3)[nH]2)c1 | 3 | 4 | 3 | -4 | -13 | i | 6 | nt
CCOC(=O)C1=C(COc2ccccc2)NC(=O)NC1c1ccc(Br)cc1 (stereo unspecified) | 9 | -4 | -6 | 12 | 12 | i | -6 | -11
COc1cccc(C(=O)C2CN(c3ccccc3)CC2c2ccc(Cl)cc2)c1 (stereo unspecified) | -17 | -6 | 7 | 12 | 16 | i | nt | -6
CN(C)Cc1ccccc1Sc1ccc(Br)cc1 | 9 | 9 | 5 | -5 | 8 | i | nt | -8
N#C/C(=C1\CCCN1)c1ccc2ccccc2n1 | -2 | 3 | 13 | -7 | 7 | i | nt | -15
Cc1cc(=O)oc(C)c1C(=O)Nc1cccnc1Cl | -2 | 1 | -4 | -5 | 10 | i | -9 | -12
Cc1ccccc1NC(=O)CSc1nnc(-c2ccccc2)n1-c1ccccc1 | 4 | 2 | -8 | 5 | 8 | i | nt | 1
CCc1ccc(-c2cc(C)no2)cc1S(=O)(=O)N1CCN(c2ccc(F)cc2)CC1 | 3 | -21 | -13 | 14 | 14 | i | 13 | nt
Cc1ccc(CNC(=O)CCCC(=O)O)cc1 | 0 | 1 | -4 | -4 | -12 | i | -61 | -27
Cc1ccccc1NC(=O)COC(=O)c1c(C)nn(-c2ccccc2)c1C | -1 | -2 | nt | nt | nt | nt | -10 | 2
O=C(NNC(=O)c1cccc2ccccc12)c1ccc(-c2ccccc2)cc1 | 6 | -13 | -4 | 13 | -2 | i | nt | nt
CCn1cc(S(=O)(=O)N2CCc3ccccc3C2)cn1 | 3 | 4 | -4 | -1 | 2 | i | nt | -5
CC(=O)NS(=O)(=O)c1ccc(NC(=O)c2cccc(S(=O)(=O)N3CCc4ccccc43)c2)cc1 | 4 | -1 | -3 | -1 | -1 | i | 5 | 7
CNc1nnc(Sc2ncccc2[N+](=O)[O-])s1 | 3 | 6 | -6 | 5 | 5 | i | 6 | -12
COC(=O)c1c(NC(=O)CN2CCN(c3ccccc3)CC2)c2c(C)cccc2n1C | -1 | 1 | -16 | -15 | 4 | i | nt | 1
Cc1ccc(OCC(=O)Nc2ccc3oc(=O)ccc3c2)cc1 | 3 | 1 | 8 | 2 | 6 | i | -7 | nt
Cc1ccc2c(c1)S/C(=C\c1cccc[n+]1C)N2CCO | -37 | -16 | -6 | -15 | 75* | i | 5 | -9 | eIF4H inh retest=-1;PABP polyA inh retest=62*
O=C(Nc1cccnc1)c1cccs1 | 4 | 4 | -12 | 17 | -8 | i | nt | -13
S=c1[nH]nc(COc2ccccc2)n1/N=C/c1c(Cl)cccc1Cl | -2 | 0 | -5 | nt | 2 | i | 17 | -6
Cc1ccc(/C(O)=C2\C(=O)C(=O)N(CCCN3CCOCC3)C2c2ccccc2F)cc1 (stereo unspecified) | 0 | 3 | nt | nt | nt | nt | ? | -24
CCOC(=O)Cc1csc(NC(=O)CSc2nc(=O)[nH]c3c2CCC3)n1 | -1 | 2 | nt | 1 | nt | i | -1 | 3
O=S(=O)(NCc1ccccc1)c1ccc2ccccc2c1 | 2 | 1 | -4 | -5 | -1 | i | -5 | -13
